Screening data: PubChem, National Center for Advancing Translational Sciences (NCATS)
miR-21 FLuc: qHTS Assay for Modulators of miRNAs and/orActivators of miR-21 | HeLa miR-21 FLuc reporter, luciferase, 48 h | Potency, µM (top dose mostly 38.3 µM), for the others: at the highest dose reporter change, positive = more light | 340,000 tested, under 10 active; active = well fitted rising curve with a large enough effect; inconclusive = small, poorly fitted or top-dose-only effect; inactive = no such curve, though single readings can be large or run the other way;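 note: % of control where 0% means no effect; miR-21 action dims this reporter so a rising signal means less miR-21 action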
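Compounds were titrated across several concentrations (up to approximately 40 uM) and incubated 48 hours with HeLa miR-21-FLuc reporter cells (miR-21 target sequence downstream of FLuc, endogenous miR-21). Readout was firefly luciferase luminescence after lytic detection reagent.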
GLA inh pH 4.5: qHTS Assay for Inhibitors of Human alpha-Galactosidase at pH 4.5 | 230,000 tested, under 10 active | Alpha-galactosidase A (Homo sapiens), P06280 | activity change, negative = inhibition, % at 105 µM | purified enzyme, 4-MU-alpha-Gal fluorescence, pH 4.5; inconclusive = small, poorly fitted or top-dose-only inhibition, or a rising curve; inactive = flat fitted curve, though single readings scatter; no compound was filed as active;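 note: 0% = full activity with enzyme and -100% = basal without enzyme; dose as in the result columns while the protocol names 77 µM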
Target sequence (P06280 whole entry, looked up): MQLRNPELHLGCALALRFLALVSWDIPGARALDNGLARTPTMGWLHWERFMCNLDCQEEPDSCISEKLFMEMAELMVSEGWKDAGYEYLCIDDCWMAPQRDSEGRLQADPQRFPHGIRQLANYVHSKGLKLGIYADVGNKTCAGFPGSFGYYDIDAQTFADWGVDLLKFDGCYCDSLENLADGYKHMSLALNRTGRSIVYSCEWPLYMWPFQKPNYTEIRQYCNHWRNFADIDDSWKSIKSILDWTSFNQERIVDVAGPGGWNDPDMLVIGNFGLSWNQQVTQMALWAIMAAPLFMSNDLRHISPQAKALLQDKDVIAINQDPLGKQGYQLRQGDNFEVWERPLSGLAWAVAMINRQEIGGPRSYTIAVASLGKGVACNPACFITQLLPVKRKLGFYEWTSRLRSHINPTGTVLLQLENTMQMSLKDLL
Rango dissoc inh: qHTS Assay for Inhibitors of RanGTP induced Rango (Ran-regulated importin-beta cargo) - Importin beta complex dissociation. Potency, µM (doses to about 46.1 µM), for inactives: top-dose activity change, negative = inhibition. Biochemical FRET Rango-importin beta, RanGTP-induced dissociation. 340,000 tested, 0.071% active; active means falling FRET ratio curve, often poorly fitted, with flat reads before Ran was added; inconclusive means other falling curves, or compound fluorescence or quenching; inactive means flat or rising ratio curve;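 note: potency is the fitted concentration of half-maximal effect; % of control where 0% means no effect; nearly all actives have a fitted effect of over 45% in size; -100% = wells without RanGTP and RCC1; the record marks most hits as doubtful in a second field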
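Rango (0.1 uM)–importin beta (0.25 uM) complex; RanGTP-RCC1 trigger; 45 min RT; CFP/YFP FRET read.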
Rango-impB inh: qHTS Assay for Inhibitors of Rango (Ran-regulated importin-beta cargo) - Importin beta complex formation; Importin subunit beta-1 (Homo sapiens), Q14974; Rango CFP/YFP FRET sensor + importin beta, 45 min; Potency, µM (top dose mostly 92.2 µM), inactives show at the top dose inhibition of complex formation; 340,000 tested, 0.031% active; active = rising FRET ratio curve, often small or poorly fitted; inconclusive = mostly compound fluorescence or quenching in the first reads; inactive = flat curves in all reads;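 note: potency is the fitted concentration of half-maximal effect; 0% = DMSO wells and 100% = buffer wells lacking importin beta; nearly all actives have a fitted effect of over 15% in size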
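FRET biosensor Rango (snurportin 1 IBB between N-terminal EYFP and C-terminal Cerulean), 50 nM in PBS/1 mM DTT/0.02% Tween-20/0.1% BSA, preincubated 5 min RT with compound; 0.125 microM importin beta added, 45 min RT, CFP/YFP FRET ratio read.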
Numbers without * were called inactive; & = joins results of further samples.

`CCOC(=O)c1cnn(-c2ccccn2)c1N` gave miR-21 FLuc -34.0%, GLA inh pH 4.5 2.0, Rango dissoc inh 6.4% and Rango-impB inh -1.2%.
For Cc1cc(N2CCN(C)CC2)nc2ccc(NC(=S)NCCCN3CCN(C)CC3)cc12 the results were miR-21 FLuc -1.2%, GLA inh pH 4.5 5.4, Rango dissoc inh 2.0% and Rango-impB inh -0.2%.
For NC(=O)CC(NC(=O)Cc1ccc(Br)cc1)c1ccc(NCCN2CCOCC2)c([N+](=O)[O-])c1 (stereo not drawn) the results were miR-21 FLuc 0.6%, Rango dissoc inh 13.1% and Rango-impB inh 0.6%.
For C/C(=N\Nc1ccc(F)cc1)c1ccncc1 the results were miR-21 FLuc -2.0%, GLA inh pH 4.5 8.7, Rango dissoc inh -12.3% and Rango-impB inh 0.8%.
CSc1ccccc1NC(=O)COC(=O)CSc1ccc(C)cc1 was read as Rango dissoc inh -0.7% and Rango-impB inh -1.1%.
CC(C)Cn1c(O)c(N=NC(=O)c2cccc(S(=O)(=O)N3CCCCC3)c2)c2ccccc21 was read as miR-21 FLuc -0.9%, GLA inh pH 4.5 -7.3, Rango dissoc inh -7.4% and Rango-impB inh -4.5%.
For Cc1ccc(S(=O)(=O)N(C)c2ccc(C(=O)NCc3cccnc3)cc2)cc1 the results were miR-21 FLuc 3.3%, Rango dissoc inh 6.5% and Rango-impB inh -3.6%.
Cc1cccc(NC(=O)c2cccc(S(=O)(=O)N(C)c3ccccc3)c2)n1 was read as Rango dissoc inh -10.5% and Rango-impB inh -1.6%.
`CSc1nc(N)nc(SCC(=O)c2ccc(C)cc2)c1C#N` gave miR-21 FLuc -51.4%, GLA inh pH 4.5 9.5, Rango dissoc inh inconclusive and Rango-impB inh inconclusive.
`CC(Oc1cccc2c1OC(C)(C)C2)C(=O)O` (stereo not drawn) gave miR-21 FLuc -4.5%, GLA inh pH 4.5 -12.4, Rango dissoc inh 41.7% and Rango-impB inh -1.5%.
Screening Nc1nc(NCCO)nc(N2CCCCCC2)c1[N+](=O)[O-] returned miR-21 FLuc 1.6%, Rango dissoc inh -2.0% and Rango-impB inh -2.0%.
For CCN(CCCNC(=O)CCn1c(=O)[nH]c2ccsc2c1=O)c1ccccc1 the results were miR-21 FLuc -4.7%, GLA inh pH 4.5 3.9, Rango dissoc inh -14.4% and Rango-impB inh -1.8%.
For CCCCOc1ccc(N(CC(=O)NCc2ccco2)C(=O)CCC(=O)Nc2nccs2)cc1 the results were miR-21 FLuc 4.1%, Rango dissoc inh 15.8% and Rango-impB inh 4.4%.
`CC(C)C[C@@H](CN(N=O)[C@@H](Cc1ccccc1)CN(C)N=O)N(CCc1ccccc1)N=O` gave miR-21 FLuc -1.5%, GLA inh pH 4.5 -15.7, Rango dissoc inh 0.6% and Rango-impB inh -0.7%.
`COc1ccc(C2=NS(=O)(=O)N(C)C(C(=O)N3CCCCC3)=C2)cc1` gave miR-21 FLuc 0.1%, Rango dissoc inh 22.7% and Rango-impB inh 0.0%.
`COCC(C)NC(=O)NC(=O)c1ccc(Cl)cc1` (stereo not drawn) gave miR-21 FLuc -5.8%, GLA inh pH 4.5 4.7, Rango dissoc inh -4.6% and Rango-impB inh 1.5%.
CC1(C)CC(=O)C=C(Nc2ccccc2NC(=O)c2cnccn2)C1 was read as miR-21 FLuc -1.2%, GLA inh pH 4.5 -9.6, Rango dissoc inh -12.2% and Rango-impB inh -0.5%.
`CN1CCN(CCCNC(=O)Cn2nc(-c3ccccc3)ccc2=O)CC1` gave miR-21 FLuc -5.6%, GLA inh pH 4.5 -11.6, Rango dissoc inh -20.0% and Rango-impB inh 2.6%.
For COc1ccccc1CNC(=O)CCC(=O)N1CCOc2ccc(C)cc21 the results were miR-21 FLuc -1.1%, Rango dissoc inh 11.0% and Rango-impB inh 0.1%.
For C=C(C)Cn1c(SCC#N)nc2ccccc2c1=O the results were miR-21 FLuc -6.7%, GLA inh pH 4.5 -9.8, Rango dissoc inh 5.2% and Rango-impB inh 4.0%.
COc1ccc(CCc2nnc(CCC(=O)NCC3CCCO3)o2)cc1 (stereo not drawn) was read as miR-21 FLuc -2.6%, Rango dissoc inh -15.8% and Rango-impB inh -0.7%.
For Cc1ccc2c(c1)N(CCC(=O)NC1CCCCC1)C(=O)CO2 the results were miR-21 FLuc 2.1%, Rango dissoc inh 7.4% and Rango-impB inh -3.0%.
`CCOC(=O)c1cccc(COC(=O)c2cccc(-c3nnc(-c4ccccc4)o3)c2)c1` gave miR-21 FLuc -63.6%, GLA inh pH 4.5 -0.7, Rango dissoc inh -3.4% and Rango-impB inh 0.8%.
Screening COc1ccc(OC)c(C2=NS(=O)(=O)N(C)C(C(=O)Nc3ccc(C(C)=O)cc3)=C2)c1 returned miR-21 FLuc 10.0%&-39.0%, Rango dissoc inh -1.3% and Rango-impB inh 5.4%.
For CC(/C=C/c1ccccc1)=N\NC(=O)CNC(=O)c1ccccc1Cl the results were miR-21 FLuc -4.4%, GLA inh pH 4.5 -4.4, Rango dissoc inh -5.5% and Rango-impB inh 1.0%.
For Cc1ccc(C(=O)NNC(=O)C2CCN(S(=O)(=O)c3ccc(Cl)cc3)CC2)cc1 the results were miR-21 FLuc -0.6%, GLA inh pH 4.5 2.4, Rango dissoc inh 0.9% and Rango-impB inh -0.8%.
For CC(=O)c1ccc(NC(=S)N2CCC(O)CC2)cc1 the results were miR-21 FLuc -10.5%, GLA inh pH 4.5 3.8, Rango dissoc inh 1.3% and Rango-impB inh -5.3%.
COC(=O)c1ccc(CSc2nnc(CNC(=O)c3cccs3)o2)o1 was read as miR-21 FLuc -3.0%, GLA inh pH 4.5 0.0, Rango dissoc inh -7.2% and Rango-impB inh -1.3%.
Cc1ccc(C)c(NNC(=O)C(=O)NNc2cc(C)ccc2C)c1 was read as miR-21 FLuc -5.7%, GLA inh pH 4.5 3.6, Rango dissoc inh 3.1% and Rango-impB inh 0.4%.
Oc1cccc(/C=N\Nc2nncc(-c3ccccc3)n2)c1 was read as miR-21 FLuc -36.3%, GLA inh pH 4.5 3.3, Rango dissoc inh 33.8% and Rango-impB inh 0.3%.
Screening O=C(N[C@@H](CO)C(=O)NCc1ccccc1)c1ccc(C(F)(F)F)cc1 returned miR-21 FLuc -0.1%, Rango dissoc inh 15.2% and Rango-impB inh 2.8%.
For CN1CCN(Cc2c(C(=O)N/N=C/c3cccc(Br)c3)nnn2-c2nonc2N)CC1 the results were miR-21 FLuc 8.0%, Rango dissoc inh 5.7% and Rango-impB inh -7.7%.
For Cc1cc(/C=C2\SC(N)=NC2=O)c(C)n1-c1ccccc1 the results were miR-21 FLuc -44.1%, GLA inh pH 4.5 4.2, Rango dissoc inh inconclusive and Rango-impB inh inconclusive.
CCN1CCN(CC(=O)c2cc(OC)c(OC)c(OC)c2)CC1 was read as miR-21 FLuc -0.6%, GLA inh pH 4.5 -4.9, Rango dissoc inh 2.2% and Rango-impB inh -0.8%.
For O=C(/C=C/Nc1ccccc1)c1ccc(Cl)cc1Cl the results were miR-21 FLuc -41.0%, Rango dissoc inh -10.2% and Rango-impB inh inconclusive.
`CNc1oc(-c2ccco2)nc1C#N` gave miR-21 FLuc -8.2%, GLA inh pH 4.5 3.1, Rango dissoc inh -1.3% and Rango-impB inh 1.5%.
For CCc1c(C(=O)N/N=C/c2sccc2C)nnn1-c1nonc1N the results were miR-21 FLuc -13.1%, Rango dissoc inh -2.9% and Rango-impB inh 0.5%.
For Cc1nc(NC(CC(C)C)C(=O)O)c2nc(C)oc2n1 (stereo not drawn) the results were miR-21 FLuc -9.4%, GLA inh pH 4.5 -6.7, Rango dissoc inh 0.7% and Rango-impB inh 2.7%.
Screening CC(=O)c1c(C)c[nH]c1C returned miR-21 FLuc -0.3%, GLA inh pH 4.5 -0.1, Rango dissoc inh -10.4% and Rango-impB inh 4.9%.
O=C(O)c1ccc(COc2ccccc2Cl)cc1 was read as miR-21 FLuc -41.0%, GLA inh pH 4.5 -9.5, Rango dissoc inh -17.6% and Rango-impB inh -1.1%.
CC(=O)[C@@H]1[C@@H]2C(=O)N(C3CCCCC3)C(=O)[C@@H]2C2c3ccccc3C=CN21 (stereo partly drawn) was read as miR-21 FLuc -4.3% and GLA inh pH 4.5 5.8.
`CN(C)/N=C/c1ccc(OS(=O)(=O)c2ccccc2)cc1` gave miR-21 FLuc -69.9%, GLA inh pH 4.5 -3.4, Rango dissoc inh 8.5% and Rango-impB inh -1.8%.
`Cc1cccc(NC(=O)Nc2ccc(Cl)c(Cl)c2)n1` gave miR-21 FLuc -20.2%, Rango dissoc inh 6.9% and Rango-impB inh 0.8%.
COc1ccc(-n2cc(CNCCCn3ccnc3)c(-c3cccc(F)c3)n2)cc1 was read as miR-21 FLuc -17.1%, GLA inh pH 4.5 -9.9, Rango dissoc inh -4.0% and Rango-impB inh -2.0%.
`CCSC1=NC(C)(C)C=C(/C=C/c2ccc(Cl)cc2Cl)N1` gave miR-21 FLuc 7.9%, GLA inh pH 4.5 -11.0, Rango dissoc inh -9.8% and Rango-impB inh 0.5%.
For CCOc1cc(CNc2ccc3cn[nH]c3c2)ccc1OC the results were miR-21 FLuc 20.3%, GLA inh pH 4.5 4.2, Rango dissoc inh inconclusive and Rango-impB inh -4.8%.
Screening Cc1cccc(-c2nc(S(=O)(=O)c3ccccc3)c(N3CCOCC3)o2)c1 returned miR-21 FLuc -15.1%, Rango dissoc inh -5.8% and Rango-impB inh -2.3%.
Cc1cc(C)c(S(=O)(=O)c2ccccc2Cl)c(=O)[nH]1 was read as miR-21 FLuc 2.7%, Rango dissoc inh 5.1% and Rango-impB inh -0.6%.
Cc1cc2occ(CC(=O)O)c2cc1C was read as miR-21 FLuc 2.0%, GLA inh pH 4.5 5.4, Rango dissoc inh -5.9% and Rango-impB inh 3.7%.
`Cc1cccc(C(=O)N[C@H](C(=O)Nc2nnc(C3CC3)s2)C(C)C)c1` gave miR-21 FLuc -4.2%, GLA inh pH 4.5 0.9, Rango dissoc inh 10.1% and Rango-impB inh -4.0%.

The final 2 records of the section before come first, to join the parts.
Cc1cc2occ(CC(=O)O)c2cc1C was read as miR-21 FLuc 2.0%, GLA inh pH 4.5 5.4, Rango dissoc inh -5.9% and Rango-impB inh 3.7%.
`Cc1cccc(C(=O)N[C@H](C(=O)Nc2nnc(C3CC3)s2)C(C)C)c1` gave miR-21 FLuc -4.2%, GLA inh pH 4.5 0.9, Rango dissoc inh 10.1% and Rango-impB inh -4.0%.
Screening CCOC(CNC(=O)c1nnc(Cc2cc(OC)c(OC)c(OC)c2)o1)OCC returned miR-21 FLuc 5.8%, GLA inh pH 4.5 3.8, Rango dissoc inh -9.1% and Rango-impB inh 1.0%.
Screening O=C(c1ccc(F)cc1)N1CCC(C(=O)N2CCN(S(=O)(=O)c3cccc([N+](=O)[O-])c3)CC2)CC1 returned Rango dissoc inh 4.1% and Rango-impB inh -3.1%.
COc1ccccc1C(=O)NCCC(=O)Nc1cccnc1 was read as miR-21 FLuc -1.3%, GLA inh pH 4.5 4.6, Rango dissoc inh 5.5% and Rango-impB inh 4.9%.
Screening COC(=O)Cn1nc(-c2ccccc2)c2ccccc2c1=O returned miR-21 FLuc -11.0%, GLA inh pH 4.5 3.6, Rango dissoc inh -9.6% and Rango-impB inh 4.5%.
For Cc1ccc2[nH]c3nc(N/N=C/c4cccc(O)c4)nnc3c2c1 the results were miR-21 FLuc 15.6%, Rango dissoc inh -2.2% and Rango-impB inh 3.3%.
Screening CCOC(=O)C1CCN(Cc2ccccc2C(F)(F)F)CC1 returned miR-21 FLuc -2.7%, GLA inh pH 4.5 1.3, Rango dissoc inh -16.9% and Rango-impB inh 1.3%.
`CSCCC(NC(=O)C12CC3CC(CC(C3)C1)C2)C(=O)OCC(=O)c1ccccc1` (stereo not drawn) gave miR-21 FLuc -6.1%, GLA inh pH 4.5 1.7, Rango dissoc inh 11.2% and Rango-impB inh 1.7%.
C=CCNC(=O)c1onc(CSc2ccc(OC)cc2)c1C(=O)O was read as miR-21 FLuc -8.2%, GLA inh pH 4.5 -1.9, Rango dissoc inh -19.7% and Rango-impB inh 1.3%.

Not all compounds are listed. The share of hits here may be higher or lower than overall.
